Screening data (PubChem)
YopH PTP inh – blocks Yersinia enterocolitica YopH tyrosine phosphatase | 140,000 tested, 0.16% active | inhibition, %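 (about 10 µM by stock and volumes)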 | fluorescence Ex485/Em525 | AID 898;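 active = inhibition of 50% or more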;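 note: controls were vehicle for no effect and minimum signal wells for full effect; inactives centre near -20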
Mtb bLac sens – beta-lactam sensitization of Mtb H37Rv | M. tuberculosis H37Rv growth with meropenem, percent inhibition; hits of this screen are not shown here | inhibition, % at 25 µM | 330,000 tested, 0.27% active;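 active = about 74% or more and at least 40 points above the plate without the antibiotic, then above 30% in a dose series; inconclusive = first-round hits that could not be retested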;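 note: growth measured after seven days incubation then overnight dye step; 0% = bacteria only wells and 100% = bacteria with antibiotic; twin plates without the antibiotic show which effects depend on it; some results filed as inactive read as strong as hits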
RecA intein inh – inhibitors of M. tuberculosis RecA intein splicing; cell-free RecA intein splicing, fluorescence; inhibition, %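 (about 9 µM by stock and volumes)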; 290,000 tested, 0.75% active; in the data active = inhibition above about 30%; inconclusive = no clear call, values can overlap the other calls;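 note: 0% = vehicle wells and 100% = reference inhibitor control wells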
Target sequence (P9WHJ3 whole entry, looked up): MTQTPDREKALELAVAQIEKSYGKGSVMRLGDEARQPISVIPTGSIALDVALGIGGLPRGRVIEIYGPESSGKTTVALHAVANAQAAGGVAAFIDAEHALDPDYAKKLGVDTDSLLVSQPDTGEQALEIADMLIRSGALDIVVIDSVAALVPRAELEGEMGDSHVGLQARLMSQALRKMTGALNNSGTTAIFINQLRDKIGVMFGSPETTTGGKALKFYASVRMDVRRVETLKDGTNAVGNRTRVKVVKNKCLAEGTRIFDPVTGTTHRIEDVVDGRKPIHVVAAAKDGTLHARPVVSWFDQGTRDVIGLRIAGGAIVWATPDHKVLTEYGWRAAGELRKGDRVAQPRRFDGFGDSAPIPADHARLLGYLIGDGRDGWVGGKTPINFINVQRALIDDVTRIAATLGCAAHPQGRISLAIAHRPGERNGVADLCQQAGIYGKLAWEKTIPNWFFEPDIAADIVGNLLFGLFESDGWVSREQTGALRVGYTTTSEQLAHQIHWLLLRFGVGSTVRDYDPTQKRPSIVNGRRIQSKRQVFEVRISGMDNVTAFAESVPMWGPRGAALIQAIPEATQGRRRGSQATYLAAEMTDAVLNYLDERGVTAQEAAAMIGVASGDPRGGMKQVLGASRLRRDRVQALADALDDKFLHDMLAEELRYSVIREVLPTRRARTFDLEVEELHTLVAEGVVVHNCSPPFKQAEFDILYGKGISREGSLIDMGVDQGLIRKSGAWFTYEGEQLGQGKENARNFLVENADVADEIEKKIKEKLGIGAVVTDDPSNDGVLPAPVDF
Mtb H37Rv – M. tuberculosis H37Rv growth inhibitors, H37Rv strain (AID 1626) | 220,000 tested, 0.95% active | inhibition, % at 10 µM; hits with a dose series show IC50 in µM | M. tuberculosis H37Rv growth inhibition; higher % means a stronger effect;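 active = confirmed in a dose series; inconclusive = inhibition above 80% but not taken into the dose series; inactive = below 80% or under 30% at every dose of the series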;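 note: bacteria incubated seven days before Alamar blue readout; 0% = bacteria only wells and 100% = bacteria with antibiotic wells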
Arbovirus anti – blocks arbovirus infection | arbovirus infection cell-based antiviral screen | inhibition, % at 10 µM | 200,000 tested, 0.37% active | AID 1251;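 active = inhibition from about 30%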;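 note: bluetongue infection of BSR cells; cell survival read as ATP light after 72 h; 0% = infected wells without compound and 100% = uninfected wells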
Arbovirus anti repeat – further read-out of Arbovirus anti, marked with its call; inhibition, %; measured here: 10K subset replicate screen; many hits read low in the repeat;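 first of two repeat runs on a subset; 0% = infected and 100% = uninfected wells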
Starred values were filed as active, the others as inactive; u = inconclusive; x = not tested or not shown. A portion of the library. The share of hits here may be higher or lower than overall.

The first 2 records as a preview:
SMILES	YopH PTP inh	Mtb bLac sens	RecA intein inh	Mtb H37Rv	Arbovirus anti	others
Cc1ccc(NC(=O)c2cccc(S(=O)(=O)N3CCCC3)c2)nc1	x	-6	-2.2	x	x
O=C(NCC1CCN(Cc2ccccc2F)CC1)Nc1ccccc1F	x	3	-2.5	x	x

All compounds of this part, from the first entry:
SMILES	YopH PTP inh	Mtb bLac sens	RecA intein inh	Mtb H37Rv	Arbovirus anti	others
Cc1ccc(NC(=O)c2cccc(S(=O)(=O)N3CCCC3)c2)nc1	x	-6	-2.2	x	x
O=C(NCC1CCN(Cc2ccccc2F)CC1)Nc1ccccc1F	x	3	-2.5	x	x
Cc1cc(C(=O)Nc2cc(C)n(Cc3ccc(Cl)cc3)n2)no1	-18	97	2.1	-2%	1
CCOC(=O)c1c(C)[nH]c(C(=O)NCc2ccco2)c1C	x	1	4.0	7%	-3
Cn1cnnc1SCC(=O)c1ccco1	-57	0	-1.9	1%	2	Arbovirus anti repeat=3
CC1CC(C)CN(CCCNC(=O)COc2cc(=O)n(C)c3ccccc23)C1 (stereo not given)	5	1	-2.4	-6%	-8
COc1ccc(/C=N/N=C2/NC(=O)C(c3ccccc3)S2)c(OC)c1 (stereo not given)	3	9	-2.1	-5%	15
COc1cc(C(=O)Oc2cccc(C=O)c2)cc(OC)c1OC	-22	49	0.0	-2%	-2
COC(=O)c1[nH]nc2c1C(=O)N(C1CCCCC1)C2=O	-40	11	1.4	0%	9
O=C(NC1CC1)c1ccc2c(c1)NC(=O)c1ccccc1S2	1	x	x	-8%	-3
CCOc1ccccc1CN1CCN(C2CCN(c3ccccc3F)CC2)CC1CCO (stereo not given)	x	-4	-8.0	-1%	-8
COc1cc2c(cc1OC)CN(C(=O)c1cccs1)CC2	-32	17	5.4	-1%	-6
Cc1oc(-c2cccc(Cl)c2)nc1CS(=O)(=O)CC(=O)NCCN1CCCC1	x	1	1.3	x	x
CC/C(=N\O)c1ccc(O)c(OC)c1	-11	3	-2.3	-9%	11
C=CCn1c(SCC(=O)NC)nc2sc3c(c2c1=O)CCC3	-19	0	-6.0	x	-2
Cc1nnc(SCC(=O)NC2CCCC2)n1C(C)C	x	-1	-2.1	x	x
COc1cc(OC)cc(C(=O)N2CCN(Cc3ccccc3[N+](=O)[O-])CC2)c1	x	-3	x	9%	7
Cc1ccc([N+](=O)[O-])cc1N=C(c1cccc([N+](=O)[O-])c1)N1CCOCC1	2	-7	0.0	3%	0
c1ccc2cc(OCCOCCOc3ccc4ccccc4c3)ccc2c1	x	-7	-1.2	-14%	x
CC(=O)Nc1ccc(S(=O)(=O)N2CCN(CCCOc3cc(C)ccc3C)CC2)cc1	-3	93	5.3	9%	-19
CSCc1ccc(C(=O)N2CCC(N3CCC(C(=O)NC(C)C)CC3)CC2)o1	x	u	-2.0	x	x
COc1ccc(-c2nc(N)n(C(=O)c3ccco3)n2)cc1	x	-1	2.9	-1%	7
c1ccc2c(N3CCNCC3)cccc2c1	x	4	4.1	-5%	x
CN1CCN(NC(=O)/C=C/c2ccc(Br)cc2)CC1	x	3	-0.4	x	x
CC1CCCC(NC(=O)Cn2cc3c(n2)CCCCC3)C1C (stereo not given)	-38	3	0.7	13%	1	Arbovirus anti repeat=-4
Cc1cc(C)c(S(=O)(=O)N2CCCOC2CNC(=O)C(=O)NCCc2c[nH]c3ccccc23)c(C)c1 (stereo not given)	-11	-5	3.2	8%	-16
COc1ccc(-c2cc(-c3ccc(C)cc3)n[nH]2)c(O)c1	x	88	17	x	x
COC(=O)c1ccc(Nc2c([N+](=O)[O-])ccc3nonc23)cc1	x	1	-2.7	x	x
CN(C)C(=O)C1C2NC(=S)N(c3cccc(Cl)c3)C1(C)Oc1ccc(Cl)cc12 (stereo not given)	x	0	1.7	-1%	-21
c1ccc(CNCc2ccco2)cc1	x	-1	-3.2	x	x
COc1ccccc1CNC(=O)C1CCN(S(=O)(=O)c2cccc3cccnc23)CC1	-27	1	-1.9	-14%	-1	Arbovirus anti repeat=4
O=C1CCC(=O)N1Cc1c(Cl)cccc1Cl	x	1	2.5	x	x
CS(=O)(=O)N(CC(=O)NCc1ccccc1)C1CCCCC1	-7	-6	-5.7	-4%	-2
COc1cc(/C=C/C(=O)O)ccc1OCc1ccccc1C#N	-40	-3	-2.7	-11%	4
Cc1ccc(CN2C(=O)c3ccccc3NC2c2ccccn2)cc1 (stereo not given)	x	-2	-1.7	-3%	-5
CCCCn1c(=O)c(C=Nc2cccnc2Cl)c(O)n(CCCCl)c1=O	-6	6	-0.6	12%	5
O=C(CS(=O)c1ccc(C(F)(F)F)cc1[N+](=O)[O-])Oc1ccc(Cl)cc1 (stereo not given)	-41	93	12	4%	11
Cc1ccc2nc(-c3ccccc3)cc(C(=O)N3CCN(c4ccccc4O)CC3)c2c1	x	0	-1.5	x	x
CCNC(=O)/C(C#N)=C/c1c(N2CCN(c3ccccc3)CC2)nc2c(C)cccn2c1=O	x	-4	-10	x	x
Cc1cccc(NC(=O)c2ccc3c(c2)CCN3S(C)(=O)=O)c1	x	-4	-1.4	x	x
C/C=C/c1ccc(OCC(=O)N(CCOC)c2c(N)n(CCCC)c(=O)[nH]c2=O)c(OC)c1	x	-10	-5.8	x	x
COc1ccc(OC)c(S(=O)(=O)N2CCC(NC(=O)c3ccccc3)CC2)c1	x	4	1.0	x	x
CCOC(=O)C1CCCN(C(=O)COc2ccc(S(=O)(=O)N(CC)c3ccccc3)cc2)C1 (stereo not given)	x	-4	2.1	3%	12
COc1ccc(C(=O)N2CCN(c3cnn(-c4ccccc4)c(=O)c3Cl)CC2)cc1	x	12	-0.6	11%	-3
COc1cccc(OCc2cc(C(=O)N3CCN(C)C(c4ccccc4)C3)no2)c1 (stereo not given)	x	17	2.7	x	x
COc1ccccc1CN1CC(C(=O)NCCc2ccc(Cl)cc2)CC1=O (stereo not given)	x	-6	12	x	x
CCc1nc2c(cnn2-c2ccc(F)cc2)c(=O)n1-c1ccc(N2CCC(C)CC2)cc1	-25	-14	-0.3	-14%	6
COC(=O)C1=C[C@@H](C(=O)OC)C2C3=C(C(=O)C24CCCCC4)[C@H](C)n2c(=O)n(-c4ccccc4)c(=O)n2[C@@H]3C1 (stereo not given in full)	x	-1	3.1	0%	x
O=C(CC(=O)Nc1ccc(F)cc1F)Nc1ccc(F)cc1F	x	-3	-9.8	x	x
CC(Cc1cccnc1)NC(=O)c1cc(COc2ccc(F)cc2F)on1 (stereo not given)	x	u	-11	x	x
COc1ccc(NC(=O)COc2ccccc2C#N)c(S(=O)(=O)N2CCCCC2)c1	-34	-13	-4.2	1%	-9
N#CCCN(Cc1ccccc1)C(=O)c1cccs1	x	-6	-0.7	-7%	x
O=C(Nc1ccccc1)C1=C(c2ccccc2)S(=O)(=O)CCS1(=O)=O	x	x	94*	-10%	2
O=C(/C=C\c1ccccc1)Oc1cccc2cccnc12	x	100	-6.6	u	-4
Cc1ccnc(NS(=O)(=O)c2ccc(Oc3ccccc3)cc2)c1	-19	-2	0.2	-4%	13
COC(=O)c1ccc(OCC(O)CN2CCN(CC(O)COc3ccc(C(=O)OC)cc3)CC2)cc1 (stereo not given)	x	4	-0.6	x	x
O=C(COc1ccc(S(=O)(=O)N2CCCC2)cc1)Nc1ccc(F)cc1	x	-13	-2.6	x	x
N#CNC(=Nc1cccc(F)c1)SCc1cccc(F)c1	-26	-2	4.7	9%	22
CCCc1oc(C(=O)O)cc1CN	-5	-2	-4.0	-2%	28
Cc1cc(C)n(CC(=O)c2cccc([N+](=O)[O-])c2)n1	x	-3	0.8	-9%	7

Reprinted at random: 6 compounds from above.
SMILES	YopH PTP inh	Mtb bLac sens	RecA intein inh	Mtb H37Rv	Arbovirus anti	others
O=C(CC(=O)Nc1ccc(F)cc1F)Nc1ccc(F)cc1F	x	-3	-9.8	x	x
CC(Cc1cccnc1)NC(=O)c1cc(COc2ccc(F)cc2F)on1 (stereo not given)	x	u	-11	x	x
Cc1ccnc(NS(=O)(=O)c2ccc(Oc3ccccc3)cc2)c1	-19	-2	0.2	-4%	13
COc1ccc(OC)c(S(=O)(=O)N2CCC(NC(=O)c3ccccc3)CC2)c1	x	4	1.0	x	x
COc1ccc(NC(=O)COc2ccccc2C#N)c(S(=O)(=O)N2CCCCC2)c1	-34	-13	-4.2	1%	-9
O=C(/C=C\c1ccccc1)Oc1cccc2cccnc12	x	100	-6.6	u	-4

(more compounds)
SMILES	YopH PTP inh	Mtb bLac sens	RecA intein inh	Mtb H37Rv	Arbovirus anti	others
Cc1nn(C)c2ncc(C(N)=O)c(Oc3cccnc3)c12	x	-6	x	-11%	x
CC1CCCN(C(=S)SCC(=O)c2cc(Br)cc(Br)c2O)C1 (stereo not given)	x	4	-4.5	-4%	3
Cc1ccc(C)c(NC(=O)CN(C)C(=O)c2cccc(S(=O)(=O)N(C)C)c2)c1	x	-7	-1.3	-10%	2
Cc1cccc(C)c1Nc1nnc(SCC(=O)Nc2sccc2C#N)s1	-6	0	4.8	6%	18
O=C(O)/C=C/c1ccc(S(=O)(=O)N2CCN(CCN3C(=O)C4C5C=CC(C5)C4C3=O)CC2)cc1 (stereo not given)	x	-7	1.5	-25%	x
CC(O/N=C/c1ccccc1OC(F)F)C(=O)Nc1cccc(S(=O)(=O)N2CCOCC2)c1 (stereo not given)	20	7	4.4	8%	4
COc1ccc(N2CCN(C(=O)C(=O)c3cn(CC(=O)N4CCCCCC4)c4ccccc34)CC2)cc1	x	4	0.9	x	x
Cc1ccccc1NC(=O)CCS(=O)(=O)c1ccc(Br)cc1	x	-8	-3.3	x	x
Cc1cc(C)cc(NS(=O)(=O)c2cc(Br)cnc2N)c1	x	-1	-0.2	x	x
CSc1nc2ccc(Cl)cc2[nH]1	-31	1	-0.1	-3%	-5
CC(C)CCNC(=O)NC(=O)CSc1nnc(COc2ccccc2Cl)o1	-11	29	x	-2%	6
CN1C2CCC1CC(N(CCc1ccccc1)C(=O)c1ccc(Cl)cc1)C2 (stereo not given)	x	6	-1.5	x	x
CS(=O)(=O)c1ccc(Cl)c(NC(=O)C2CC(=O)N(Cc3ccccc3)C2)c1 (stereo not given)	-48	-2	0.8	-1%	10
O=C(NCc1ccccc1)C1=C[C@@H](c2ccc(C(F)(F)F)cc2)C[C@@H](OCCCCO)O1	x	-2	4.9	-1%	x
CCN(CC)CCCN(Cc1cc2cc3c(cc2[nH]c1=O)OCO3)C(=S)NCCOC	x	3	-0.9	x	x
O=C(CC1CC2CCC1C2)Nc1nc(-c2ccccn2)cs1 (stereo not given)	x	87	x	u	-15
COC(=O)C(CCCCNC(=O)c1ccc([N+](=O)[O-])cc1)NC(=O)c1ccc([N+](=O)[O-])cc1 (stereo not given)	-26	-3	2.6	1%	2
O=C1[C@@H]2C(c3cccnc3)=NO[C@@H]2C(=O)N1c1ccc(Cl)cc1Cl	x	-6	x	-1%	x
CN1/C(=C\C(=O)COC(=O)CNC(=O)c2ccccc2F)C(C)(C)c2ccccc21	-17	-1	0.3	10%	2
Cc1ccc(NC(=O)CSc2ncn(-c3ccccc3)n2)cc1C	-12	76	3.3	59%	-4
C#CCOCCOCCOCCNc1nc(N2CCN(C(=O)[C@H]([C@@H](C)CC)n3cc(CCCN=C(N)N)nn3)CC2)nc(N2CCN(C(=O)[C@H](Cc3ccc(O)cc3)n3cc(CCO)nn3)CC2)n1	-18	-27	x	-7%	-4
Cc1cccc(NC(=S)N(CCCN2CCOCC2)Cc2ccco2)c1	x	-4	0.1	-7%	9
O=C(Nc1ccc2oc(-c3ccncc3)nc2c1)c1ccc([N+](=O)[O-])o1	x	100	1.0	x	x
CCc1ccccc1NC(=O)N1C2CCCC1CC(NC(C)=O)C2 (stereo not given)	-45	-10	-0.4	-14%	1
N#Cc1c(-c2ccccc2)nc(-c2cccnc2)[nH]c1=O	x	-7	-0.6	x	x
O=S1(=O)c2ccccc2N=NN1Cc1ccc(Cl)c(Cl)c1	-16	98	18	8%	14
Cc1occc1C(=O)Nc1sc2c(c1C(N)=O)CCC(C(C)(C)C)C2 (stereo not given)	-48	0	-1.8	-3%	8
O=C1NC(=O)N(Cc2ccccc2)C(=O)/C1=C/c1cnc(-c2ccccc2)nc1	x	2	-0.1	-7%	0
COC(=O)CSc1ncnc2c1cnn2Cc1ccccc1	-37	100	-3.4	u	-10
c1ccn(-c2ccc(N3CCOCC3)cc2)c1	-35	2	-2.8	x	-3
CN1C(C(=O)NCc2cccc(C(F)(F)F)c2)CC2Cn3c(nc4cc5ccccc5cc43)C21 (stereo not given)	x	16	2.3	6%	x
CCN1CCC(=NNC(=O)c2ccco2)CC1	8	13	0.9	2%	4
O=[N+]([O-])c1cccc(/C=C/c2nc3ccc([N+](=O)[O-])cc3[nH]2)c1	1	9	2.3	9%	-30
